Screening results: PubChem, National Center for Advancing Translational Sciences (NCATS)
Sfp PPTase inh – Sfp phosphopantetheinyl transferase inhibition; Q9F4F7; 310,000 compounds, 3.5% hits; Biochemical Sfp PPTase activity, qHTS; Potency, µM, for the others: max response, negative = inhibition, hits mostly inhibitors; active means well fitted inhibition curve with a large enough effect; inconclusive means small, poorly fitted or top-dose-only effect, or another doubt; inactive means no such curve, though single readings can be large or run the other way;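 further: the enzyme is Sfp with the accession as filed and its product quenches rhodamine fluorescence; potency means the concentration at half of the fitted maximal effect; 0% = enzyme reaction without inhibitor and -100% = no enzyme wells; top concentration of the series not given in the record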
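Reaction rates are the 30-min fluorescence difference (ex 525, em 598 nm) in wells containing 15 nM Sfp, 5 uM rhodamine-CoA and 12.5 uM BHQ-2-YbbR at pH 7.6 with 10 mM MgCl2.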
TRPML1 inh – human mucolipin-1 channel inhibition; Q9GZU1; TRPML1-inducible cells, Ca2+ dye fluorescence, FDSS; hits give low values; inhibition of EC80 agonist-evoked calcium signal; activity change, negative = inhibition, % (concentration not given with the values); 390,000 compounds, 0.02% hits; AID 624415; in the data active means activity change below about -50%; inconclusive means about -30% to -50%; inactive means above about -30%;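 further: stimulus is agonist 54-4 at its EC80 concentration; on the % scale 0 is the no-effect control and ±100 the full control effect; the text of the record puts the active cut at -80%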
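Tet-induced TRPML1-DL cells loaded with Ca8 no-wash calcium dye were read kinetically on FDSS. Compound addition was followed by EC80 agonist 54-4 (4 uM final); inhibition was read over 110 s.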
ClpP mod – qHTS Assay for Activators of ClpP; ATP-dependent Clp protease proteolytic subunit (Bacillus subtilis (strain 168)), P80244; purified B. subtilis ClpP, FRET peptide cleavage, 20 min; Potency, µM (doses to about 57.5 µM), for the others: top-dose activity change, negative = active; 340,000 compounds, 1.9% hits; active = well fitted falling curve with a large enough effect; inconclusive = small, poorly fitted or top-dose-only effect; inactive = no such curve, though single readings can be large or run the other way; further: potency means the concentration at half of the fitted maximal effect; the source files actives as falling curves though it sought activators and does not explain the sign; nearly all actives have a fitted effect of over 65% in size; many hits overshoot -100%
Target sequence (P80244 whole entry, looked up): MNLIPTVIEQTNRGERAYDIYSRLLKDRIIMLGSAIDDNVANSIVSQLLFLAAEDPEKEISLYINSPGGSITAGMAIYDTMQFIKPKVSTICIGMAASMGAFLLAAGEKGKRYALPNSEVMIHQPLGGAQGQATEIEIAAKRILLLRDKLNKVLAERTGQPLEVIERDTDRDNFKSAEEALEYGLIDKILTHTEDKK
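Purified B. subtilis ClpP, 10 microg/mL final in Tris/HCl pH8 with KCl, BSA, glycerol and Tween-20, cleaved an Abz/nitrotyrosine-quenched decapeptide. Fluorescence (ex 320, em 430) was read at 0 and 20 min at room temperature. Delta was normalized to 5.8 microM ADEP and DMSO/no-enzyme controls.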
TRPML1 agonist – activates the human TRPML1 channel; 410,000 compounds, 0.12% hits; Q9GZU1; TRPML1-expressing cells, Ca2+ dye fluorescence, FDSS; host cell line not named in the record; reference of the full effect not given here; activation, % (concentration not given with the values); in the data active = activation above about 50%; inconclusive = about 30% to 50%; inactive = below about 30%; further: 0% is about no effect; the text of the record puts the active cut at 80%
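Agonist activity was taken from a 110 s kinetic Ca2+ dye read on the FDSS after pinning compounds onto TRPML1-DL cells. The cells were seeded at 1,500/well with Tet inducer, incubated about 16 h, then dye-loaded at room temperature.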
Menin-MLL FL inh – inhibitors of human menin-MLL interaction, wild-type MLL peptide; Fluorescence polarization, fluorescein-MLL peptide displacement from menin; FP activity change, % at 61.4 µM; 290,000 tested, under 10 active; AID 1766; inconclusive = falling polarisation curve, or a change in total fluorescence; inactive = total fluorescence flat and polarisation flat or rising; no compound was filed as active; the % refers to the polarisation; negative = inhibition;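 further: % of control where 0% means no effect; inhibitors lower the polarisation; unlabelled MLL peptide was the positive control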
PINK1 modulator – PINK1 expression modulation | Potency, µM (titrated, usually from 76.6 µM), without a hit: top-dose activation (PINK1 increase), actives largely listed as activators | AID 624263 | 410,000 compounds, 0.2% hits | PINK1 immunofluorescence, high-content cytometry, 24 h; active = well fitted activation curve with a large enough effect; inconclusive = small, poorly fitted or top-dose-only effect; inactive = flat fitted curve, though single readings scatter; cell line not stated here;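 further: potency means the concentration at half of the fitted maximal effect; % of control where 0% means no effect; nearly all actives have a fitted effect of over 65% in size; a mitochondrial uncoupler was the plate control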
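Decision-based qHTS: stable cells, 24 h exposure to five compound concentrations, CCCP as control. Fixed cells stained for PINK1 plus nuclear, mitochondrial and cell markers, cytometer read.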
TRPV1 PAM – potentiators of human vanilloid receptor 1 (TRPV1). Q8NER1. TRPV1-expressing cells, Fluo-8 calcium influx, capsaicin EC20 potentiation; host cell line not named in the record; control for the full effect not named in the record. potentiation, % at 8.33 µM. 320,000 compounds, 0.02% hits. AID 540277; active means potentiation above 80%; inconclusive means 30% to 80%; inactive means below 30%; further: 0% is about no effect
Target sequence (Q8NER1 whole entry, looked up): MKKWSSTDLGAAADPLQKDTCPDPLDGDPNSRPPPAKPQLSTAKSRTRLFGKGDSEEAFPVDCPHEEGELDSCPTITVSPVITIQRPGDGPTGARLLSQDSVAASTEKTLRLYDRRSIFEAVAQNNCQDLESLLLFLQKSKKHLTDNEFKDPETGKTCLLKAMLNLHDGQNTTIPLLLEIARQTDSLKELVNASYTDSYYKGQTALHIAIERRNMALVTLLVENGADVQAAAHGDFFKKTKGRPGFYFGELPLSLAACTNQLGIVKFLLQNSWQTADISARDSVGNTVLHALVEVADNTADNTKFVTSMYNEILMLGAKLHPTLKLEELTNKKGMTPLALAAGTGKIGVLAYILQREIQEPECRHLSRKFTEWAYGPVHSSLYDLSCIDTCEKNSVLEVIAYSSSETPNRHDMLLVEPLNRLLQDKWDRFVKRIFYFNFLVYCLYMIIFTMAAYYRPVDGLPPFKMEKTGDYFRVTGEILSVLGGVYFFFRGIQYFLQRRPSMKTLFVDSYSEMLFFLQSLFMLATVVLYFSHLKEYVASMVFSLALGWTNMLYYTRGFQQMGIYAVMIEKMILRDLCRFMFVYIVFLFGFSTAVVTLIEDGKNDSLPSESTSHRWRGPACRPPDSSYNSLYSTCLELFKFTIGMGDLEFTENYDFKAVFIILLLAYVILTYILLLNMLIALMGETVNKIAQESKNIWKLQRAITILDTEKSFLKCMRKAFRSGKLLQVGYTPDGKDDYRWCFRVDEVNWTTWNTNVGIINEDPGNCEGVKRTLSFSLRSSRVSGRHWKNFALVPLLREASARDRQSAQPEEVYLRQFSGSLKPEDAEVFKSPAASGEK
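TRPV1-expressing cells were cultured overnight at 35.5C and loaded with Fluo-8 calcium dye for 40 to 90 min at room temperature. After a 10 s baseline, compound was added and calcium influx was read kinetically for 3 min (ex 480/em 520 nm).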
The depositor's hits bear a star; ? = inconclusive; . = no result given; [ ] = another dose, or the depositor's remark. The order is random; any-hit rate near 4.4%.

Structure | Sfp PPTase inh | TRPML1 inh | ClpP mod | TRPML1 agonist | Menin-MLL FL inh | PINK1 modulator | TRPV1 PAM
CCCCNC(=O)C1=C(N)C(C(=O)Nc2ccc(C)c(S(=O)(=O)N3CCCCC3)c2)SC1=Nc1ccc(C)cc1C (stereo not given) | 12% | -3 | -3.3% | 0.1 | -8.4 | 15% | -6
Cn1c(=O)[nH]c(=O)c2c1nc(SCC(=O)O)n2CCOc1ccccc1 | 11% | 18 | . | -0.5 | 2.7 | 3.1% | 0
O=[N+]([O-])c1c(NCCO)cc(Sc2nc3ccccc3s2)c2nonc12 | 6.3µM* | -6 | 0.3% | 0.4 | 4.3 | 14%[38.3 µM] | -2
CNC(=O)Nc1cc(C)nn1C | 11% | -8 | 1.1% | 0.4 | 2.4 | 1.1% | 28
Cc1ccc(/C(N)=N/OC(=O)/C=C/c2ccccc2)cc1 | -10% | 6 | 1.6% | 0.4 | -0.2 | 24% | 20
Cc1ccccc1CSCCC(=O)NCCc1ccccc1 | 12% | -2 | . | 0.2 | 2.8 | 0.0% | -3
CC1=C(C(=O)OCC2CCCO2)C(c2ccccc2)C2=C(CC(C)(C)CC2=O)N1 (stereo not given) | 11% | 43 | . | 0.7 | 0.0 | 3.1% | 7
CC1CCN(C(=O)c2ccc(NC(=O)CC3SC(N4CCCC4)=NC3=O)cc2)CC1 (stereo not given) | . | 4 | . | -1.0 | . | 1.8% | 12

Next part
Structure | Sfp PPTase inh | TRPML1 inh | ClpP mod | TRPML1 agonist | Menin-MLL FL inh | PINK1 modulator | TRPV1 PAM
O=C1CCCCCCCCCC/C(=N\O)CCCO1 | . | -10 | . | 0.4 | . | 23% | .
Cc1cccc(-c2cc(N3CCCN(C)CC3)n3nccc3n2)c1 | . | . | 4.8% | -0.3 | . | 18% | .
Cc1ccc(O)c(N=CC2=C(O)c3ccccc3C2=O)c1 | -27% | 2 | -0.2% | 1.0 | ? | -0.5% | 14
COc1cccc(C(=O)N2c3ncnn3C3(CCCCC3)[C@@H]3CCCC[C@@H]32)c1 | . | -5 | 0.2% | 0.4 | . | 0.7% | .
CC1CCCC(C)N1C(=O)CSc1nc(N)c(-c2ccccc2)c(=O)[nH]1 (stereo not given) | -17% | -4 | -1.0% | -0.6 | 2.1 | -2.0%[38.3 µM] | -1
O=c1c2cc(Br)ccc2[nH]c(=S)n1Cc1ccccn1 | 9% | -2 | 6.6% | -0.4 | -0.8 | 2.0% | -23
CC(Oc1ccc(F)cc1)C(=O)Nc1ccccc1C(=O)N1CCCCC1 (stereo not given) | . | 3 | 0.3% | 1.1 | . | -1.3% | -18
COc1ccccc1NC(=O)COC(=O)C1CCN(/C=C/C(=O)C(F)(F)F)CC1 | 1% | -4 | 1.5% | 0.2 | 3.8 | -1.4% | 24

(listing goes on)
Structure | Sfp PPTase inh | TRPML1 inh | ClpP mod | TRPML1 agonist | Menin-MLL FL inh | PINK1 modulator | TRPV1 PAM
CCSc1cc(N2CCCC2)nc(-c2ccc(C)cc2)n1 | -3% | 5 | -7.2% | 0.8 | 8.2 | 6.3% | 15
CCN1C(=O)CC(c2ccccc2)N(C2CCCC2)c2nc(Nc3ccc(C(=O)NC4CCN(C)CC4)cc3OC)ncc21 (stereo not given) | . | 1 | -19% | -0.3 | . | -1.1% | .
O=C(CN1CCN(S(=O)(=O)c2ccccc2)CC1)Nc1ccc2c(c1)OCO2 | 12% | -17 | -1.6% | 0.0 | 3.8 | -0.7% | 0
COc1ccccc1N1CCN(C(=O)CN2C(=O)COc3ccc(S(=O)(=O)N4CCCCCC4)cc32)CC1 | . | -4 | -2.5% | -0.8 | . | 2.9% | .
O=C(O)c1cc2c(s1)-c1ccccc1CC2 | -3% | 11 | 236% | -0.1 | 3.0 | -0.1% | 18
COc1ccccc1NC(=O)C(NC(=O)c1ccc(C)cc1)c1ccccc1 (stereo not given) | 7% | 4 | . | 1.6 | -0.1 | 1.2% | -10
O=C(c1cccc(S(=O)(=O)N2CCOCC2)c1)N(Cc1ccco1)Cc1cccs1 | . | -1 | -0.4% | -0.4 | . | 0.4% | -27
COc1ccccc1Cc1nc2ccccc2nc1SCC(=O)Nc1c(C)cccc1C | . | -5 | 0.5% | 0.9 | . | -5.1% | .

Continuation.
Structure | Sfp PPTase inh | TRPML1 inh | ClpP mod | TRPML1 agonist | Menin-MLL FL inh | PINK1 modulator | TRPV1 PAM
N=C1N(/N=C/c2ccccc2)C(=Nc2ccccc2)C(=S)N1c1ccccc1 | 32µM* | -3 | -0.1% | -0.4 | 2.4 | . | 5
COc1ccccc1NC(=O)c1cc2c(CO)cnc(C)c2oc1=Nc1cccc(C(N)=O)c1 | 13% | 33 | 1.5% | 4.3 | 8.8 | 1.5% | -2
Cc1cc(Cl)c(OCCCNC2CCCC2)c(Br)c1 | 0% | -6 | . | -0.7 | 0.0 | 14% | 21
CC(=O)NC1=NN(C(C)=O)C(c2sccc2C)S1 (stereo not given) | 22% | -14 | -0.3% | -0.4 | 1.7 | 3.3% | 11
O=C(Nc1nnc(SCc2ccc(F)cc2)s1)c1ccc2c(c1)C(=O)N(c1ccccc1Cl)C2=O | 1% | 10 | . | 0.1 | . | 4.2% | -4
COc1cccc(NC(=O)c2cnc(SC)nc2C)c1 | 2% | 8 | -2.4% | 0.8 | 2.9 | 0.3% | -6
CCSc1nnc(NC(=O)C(NC(=O)c2ccc(Cl)cc2)C(C)C)s1 (stereo not given) | 2% | -17 | -7.6% | -0.8 | -4.7 | 3.1% | 2
COCCCC1CCN(C(=O)c2cc(COc3ccc(C)nc3)on2)CC1 | 9% | -5 | 28µM* | 0.8 | . | 0.7% | -19

Following part:
Structure | Sfp PPTase inh | TRPML1 inh | ClpP mod | TRPML1 agonist | Menin-MLL FL inh | PINK1 modulator | TRPV1 PAM
CCCCCCN1CCN(C2CN(Cc3cn(Cc4cccc(Cl)c4)nn3)S(=O)(=O)C2)CC1 (stereo not given) | . | . | -13% | -0.6 | . | -0.8% | .
COc1ccc(C2CC(=O)Nc3n[nH]c(-c4ccccc4)c32)cc1OC (stereo not given) | -2% | -6 | -2.8% | 0.9 | -0.5 | 3.8% | -3
O=C(NNC(=O)c1nc(Cl)ccc1Cl)c1ccc(F)cc1 | 1% | 12 | -3.1% | -0.4 | . | 0.4% | 3
O=C(Cn1c(-c2cscn2)nc2ccccc21)Nc1ccccc1F | 7% | -12 | -24% | 3.6 | 0.6 | 4.5%[38.3 µM] | 11
CCCc1nn2c(=O)cc(COC(=O)c3ccc(NC(=O)C4CCCCC4)cc3)nc2s1 | . | -7 | 2.1% | 1.0 | . | 1.8% | .
O=C(COC(=O)C1=COCCO1)NC(=O)c1ccc(OC(F)F)cc1 | 12% | -5 | . | -1.2 | 0.1 | 2.0% | 7
O=C1OCCC1Sc1ncnc2sccc12 (stereo not given) | 3% | 12 | -1.2% | -0.5 | -0.2 | 2.0% | -1
CN(CC(=O)N1CCCCC1)S(=O)(=O)c1cccc2cccnc12 | 12% | 4 | 0.8% | -0.1 | 1.1 | 2.1% | 6

(more compounds)
Structure | Sfp PPTase inh | TRPML1 inh | ClpP mod | TRPML1 agonist | Menin-MLL FL inh | PINK1 modulator | TRPV1 PAM
O=C(c1ccccn1)N1CCN(c2cccc(C(F)(F)F)c2)CC1 | 12% | 25 | 0.1% | 0.5 | -1.2 | -1.7% | -6
O=C(CSc1ccc2nnc(-c3ccccn3)n2n1)N1CCOCC1 | 13% | 16 | 4.1% | -1.0 | -2.2 | 1.3% | 10
NC(=O)Cc1nc(-c2ccc(Br)cc2)cs1 | -5% | 1 | 1.6% | -0.9 | 3.0 | -0.7% | -26
COCCNC(=O)COc1ccccc1C | 0% | -20 | -1.6% | -0.2 | -1.1 | 0.7% | 13
C=CCOCCN(CCOCC=C)C1=NS(=O)(=O)c2ccccc21 | 8% | -4 | 0.5% | 0.4 | -1.8 | -1.6% | -14
Cc1cccc(N(C(=O)c2snc(C(N)=O)c2N)C(C)C(=O)NCC2CCCO2)c1 (stereo not given) | 19% | -10 | -1.0% | -0.9 | 3.4 | -0.5% | 2
CN(C)/N=C/c1cc([N+](=O)[O-])ccc1O | 17% | -2 | . | -0.9 | -3.6 | 1.0% | 0
O=C(NCc1ccccc1)c1c[nH]c2ccccc2c1=O | 4% | 20 | -3.4% | 0.3 | 6.7 | -0.8% | ?

Structures above containing bromine, in the order listed:
Structure | Sfp PPTase inh | TRPML1 inh | ClpP mod | TRPML1 agonist | Menin-MLL FL inh | PINK1 modulator | TRPV1 PAM
O=c1c2cc(Br)ccc2[nH]c(=S)n1Cc1ccccn1 | 9% | -2 | 6.6% | -0.4 | -0.8 | 2.0% | -23
Cc1cc(Cl)c(OCCCNC2CCCC2)c(Br)c1 | 0% | -6 | . | -0.7 | 0.0 | 14% | 21
NC(=O)Cc1nc(-c2ccc(Br)cc2)cs1 | -5% | 1 | 1.6% | -0.9 | 3.0 | -0.7% | -26

Carrying on.
Structure | Sfp PPTase inh | TRPML1 inh | ClpP mod | TRPML1 agonist | Menin-MLL FL inh | PINK1 modulator | TRPV1 PAM
Cc1noc(C)c1C(=O)N1CCC2(CCCN(Cc3nccs3)C2)CC1 | 5% | . | . | . | -0.2 | 0.3% | .
CC1CCCCN1C(=O)CCNS(=O)(=O)c1ccc2c(c1)c(=O)n(C)c(=O)n2C (stereo not given) | 14% | -6 | -9.0% | -0.5 | 0.4 | 0.0% | -5
O=C(Nc1nonc1-c1ccc(F)cc1)c1ccco1 | 29% | 7 | 0.7% | -0.1 | 2.3 | -0.2% | 24
Nc1cc(Cl)ccc1CN1C(=O)c2ccccc2C1=O | . | . | -15% | -0.3 | . | 0.2% | .
CCOC(=O)c1cnc2ncnn2c1N | 8% | 17 | -0.2% | 2.5 | 2.0 | -0.8% | 29
COc1cccc(NC(=O)CN2CCN(CC(=O)Nc3ccccc3Cl)CC2)c1 | 11% | -1 | 2.3% | -0.3 | 1.3 | -1.9% | 0
O=C(CCCN1C(=O)/C(=C/c2cccs2)SC1=S)Nc1ccc(C(=O)O)cc1 | -17% | 3 | . | 1.2 | -0.6 | 0.2% | -1
COc1ccc(Cc2nnc(NC(=O)c3cc(OC)c(OC)c(OC)c3)s2)cc1OC | 3% | 17 | . | 0.9 | -6.2 | 9.7% | 21
CCCCNC(=O)N1CCN(c2ccnc3cc(Cl)ccc23)CC1 | 6% | -18 | 1.3% | -0.3 | -0.8 | -0.5% | -13
